# D2 ag – Beta-Arrestin HTS for Positive Allosteric Modulators of the Human D2 Dopamine Receptor: Agonists. 360,000 compounds, 0.084% hits. D(2) dopamine receptor (Homo sapiens), P14416. activation, % (concentration not given with the values). DiscoveRx PathHunter D2 beta-arrestin, luminescence, 90 min; 100% = 57 uM dopamine signal; in the data active = activation above about 40%; inconclusive = about 15% to 40%; inactive = below about 15%; note: the text of the record calls up to 30% inactive
#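 DiscoveRx PathHunter D2 beta-arrestin cells (2,100/well) attached overnight, then compound-stimulated 90 min at 37 C in HBSS/10 mM HEPES/0.1% Tween-20 buffer; beta-galactosidase complementation read by luminescence after 1 h at ambient temperature. Dopamine 57 uM final (EC100) as control.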
# gsp ag – qHTS for Agonist of gsp, the Etiologic Mutation Responsible for Fibrous Dysplasia/McCune-Albright Syndrome: qHTS; gsp mutant cells, cAMP HTRF, 30 min; control for the full effect not named in the record; Potency, µM (titrated, usually from 76.9 µM), inactives show at the highest dose activation (cAMP increase), usual class: activators; 340,000 compounds, 0.13% hits; active = well fitted activation curve with a large enough effect; inconclusive = small, poorly fitted or top-dose-only effect, or another doubt; inactive = no such curve, though single readings can be large or run the other way; cell line not stated here;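 note: phosphodiesterase inhibitor Ro 20-1724 added with compounds to block cAMP breakdown; potency is the fitted concentration of half-maximal effect; nearly all actives have a fitted effect of over 60% in size; about a fifth of the inactives were tested at one dose only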
#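 Cells stably selected in G418 were plated at 2000/well, grown 16-24 hr, then given compounds in DMSO with the PDE inhibitor […] (300 uM solution added) for 30 min at 37C; cAMP was read by HTRF.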
# gsp antag – qHTS for Antagonists of gsp, the Etiologic Mutation Responsible for Fibrous Dysplasia/McCune-Albright Syndrome: qHTS. gsp-mutant cells, cAMP HTRF, 30 min; control for the full effect not named in the record. Potency, µM (highest dose often 76.9 µM), inactives show at the top dose activity change, negative = inhibition, hits mostly inhibitors. 340,000 compounds, 0.4% hits. AID 624288, 2012; active = falling curve of any shape with a large fitted effect; inconclusive = falling curve, mostly with a smaller effect; inactive = flat or rising curve; cell line not stated here;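 note: intracellular cAMP measured with PDE inhibitor Ro 20-1724 present during compound exposure; potency is the fitted concentration of half-maximal effect; % is set by controls: 0 for no effect and ±100 for the full control effect; nearly all actives have a fitted effect of over 65% in size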
#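 G418-selected cells were plated in DMEM/10% FBS for 16-24 h at 37C, then treated with compounds plus the PDE inhibitor […] (300 uM solution added) for 30 min at 37C. Intracellular cAMP was measured by HTRF after 30 min lysis at room temperature.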
# D2 PAM – Beta-Arrestin HTS for Positive Allosteric Modulators of the Human D2 Dopamine Receptor: Potentiators; D(2) dopamine receptor (Homo sapiens), P14416; DiscoveRx D2 beta-arrestin cells, luminescence, 90 min; 100% = 57 uM dopamine signal; potentiation, % (concentration not given with the values); 360,000 compounds, 0.23% hits; active = potentiation of 50% or more; inconclusive = 30% to 50%; inactive = 30% or less;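 note: tested on top of an EC20 dose of dopamine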
#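 D2 cells co-treated with compound plus 50 nM dopamine (EC20) for 90 min at 37 deg C to detect potentiation. Beta-arrestin recruitment was read as enzyme-fragment luminescence after 1 h at ambient temperature. Full response was set by 57 uM dopamine.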
# CtBP-E1A inh – qHTS Assay for Inhibitors of the CtBP/E1A Interaction; AlphaScreen GST-E1A/His-CtBP binding, 1536-well; hits give low values; control for the full effect not named in the record; CtBP / adenovirus E1A interaction (AlphaScreen); AID 651724, 2012; activity change, % (test concentration not listed); 340,000 compounds, 0.49% hits; in the data active means activity change below about -65%; inconclusive means about -30% to -65%; inactive means above about -30%; note: % is set by controls: 0 for no effect and ±100 for the full control effect
#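 In 5 uL wells, 23 nL compound meets equimolar GST-E1A and His-CtBP (5X stock 125 nM each) for 2 h, 37 °C. Beads (5X, 50 ug/mL) then 1 h, 37 °C, dark.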
# Six1-Eya2 blk – qHTS Assay for Inhibitors of the Six1/Eya2 Interaction; Homeobox protein SIX1 (Homo sapiens) + Protein phosphatase EYA2 (Homo sapiens), …; AlphaScreen GST-Six1/His-Eya2 binding, biochemical; hits give low values; control for the full effect not named in the record; activity change, % (concentration not given with the values); 360,000 compounds, 0.56% hits; AID 651725, 2012; in the data active = activity change below about -65%; inconclusive = about -30% to -65%; inactive = above about -30%; note: % is set by controls: 0 for no effect and ±100 for the full control effect
# Target sequence (O00167 whole entry, looked up): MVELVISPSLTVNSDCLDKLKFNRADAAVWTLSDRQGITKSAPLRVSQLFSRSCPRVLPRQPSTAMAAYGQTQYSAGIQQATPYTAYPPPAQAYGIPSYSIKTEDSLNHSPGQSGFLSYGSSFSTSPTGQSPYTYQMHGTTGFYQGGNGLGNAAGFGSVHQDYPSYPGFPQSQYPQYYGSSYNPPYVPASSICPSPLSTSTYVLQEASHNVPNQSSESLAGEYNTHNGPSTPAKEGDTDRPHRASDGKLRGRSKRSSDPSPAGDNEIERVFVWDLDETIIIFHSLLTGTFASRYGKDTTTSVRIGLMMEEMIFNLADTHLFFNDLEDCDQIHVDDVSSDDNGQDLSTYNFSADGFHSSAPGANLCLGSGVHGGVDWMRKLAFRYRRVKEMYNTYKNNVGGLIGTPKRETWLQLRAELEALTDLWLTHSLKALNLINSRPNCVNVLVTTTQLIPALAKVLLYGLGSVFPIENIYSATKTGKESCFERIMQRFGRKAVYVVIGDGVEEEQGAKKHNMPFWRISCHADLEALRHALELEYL
# Target sequence (Q15475 whole entry, looked up): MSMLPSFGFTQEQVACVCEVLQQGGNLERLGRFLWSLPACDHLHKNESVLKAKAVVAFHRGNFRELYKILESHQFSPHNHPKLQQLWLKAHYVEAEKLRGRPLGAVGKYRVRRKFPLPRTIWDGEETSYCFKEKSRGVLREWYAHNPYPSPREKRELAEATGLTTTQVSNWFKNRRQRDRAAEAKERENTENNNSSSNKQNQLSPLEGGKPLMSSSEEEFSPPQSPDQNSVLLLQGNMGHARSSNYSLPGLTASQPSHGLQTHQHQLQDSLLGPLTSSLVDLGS
#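 Homogeneous AlphaScreen proximity assay pairing GST-Six1 with His-tagged Eya2 (added as 5X mix: 250 nM and 500 nM) in 50 mM Tris pH 8.0, 300 mM NaCl, 1 mM TCEP. Glutathione donor and nickel acceptor beads; 1 h, 37 °C, dark.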
# * marks the source's active call; other numbers are inactive results; ? = inconclusive; · = no result given; [ ] = remark or other dose. Not a hit list; any-hit rate near 1.4%.
SMILES,D2 ag,gsp ag,gsp antag,D2 PAM,CtBP-E1A inh,Six1-Eya2 blk
CCOc1cccc2cc(C(=O)NCc3ccc(Cl)cc3)c(=N)oc12,-1.1,-34%[inhibitor],11%,-15,4,-5
CC1(CCc2ccccc2)NC(=O)N(CC(=O)Nc2ccc(S(N)(=O)=O)cc2)C1=O (stereo not drawn),3.4,-11%[15.4 µM],·,13,-7,2
Cc1onc(-c2ccccc2)c1C(=O)N1CCCC(C(F)(F)F)C1 (stereo not drawn),-3.4,-27%,1%,-7,3,1
CCCCC1CC2=C(C(=O)OC(C)(C)O2)C(c2ccc(Cl)cc2)O1 (stereo not drawn),0.9,·,·,2,-3,7
Cc1ccc2c3c(cccc13)-c1ccccc1C2=O,-4.9,-5%[15.4 µM],-16%,-12,13,-5
CS(=O)(=O)N(Cc1nc2sc3c(c2c(=O)[nH]1)CCCC3)C1CCCCC1,-1.0,-4%,-15%,-6,-7,2
CCCNc1nc2c(c(=O)n(C)c(=O)n2C)n1CCCc1ccccc1,0.2,24%,3%,3,0,-7
COc1cccc(CN2CCSCC2)c1,-0.6,-35%[inhibitor],-9%,-24,13,-3
C/C=C(/C)C(=O)Nc1cccc(C2=NOC3(C2)C[C@@H](C(N)=O)N(C(=O)CC)C3)c1 (stereo partly drawn),0.3,12%,10%,-2,·,13
CC(=O)Nc1ccc(S(=O)(=O)N2CCCC2)cc1,0.4,-33%,-2%,-6,·,-4
CC(C)(C)c1ccc(CC(=O)N2CCC2(C)C(=O)O)cc1 (stereo not drawn),-4.8,·,·,-2,5,3
COc1ccc(CNCCC2(C(C)C)CCOC(C)(C)C2)cc1 (stereo not drawn),4.0,-1%,6%,-3,·,1
Cc1ccc(-c2nnn(CC(=O)Nc3ccccc3-c3ccccc3)n2)c(-n2cnnn2)c1,-0.6,-25%,?,-16,-3,-9
COc1cc(NC(=O)CN(C)S(=O)(=O)c2ccc3c(c2)CC(C)N3C(C)=O)cc(OC)c1OC (stereo not drawn),9.8,1%,-2%,-6,0,-1
CCc1cccc(Nc2cnn(C34C[C@@H]5C[C@@H](CC(CC(=O)O)(C5)C3)C4)c(=O)c2Cl)c1,1.8,15%,-6%,0,-4,-13
COc1ccc(NC(=O)C2CCCN2S(=O)(=O)c2cccc3cccnc23)cc1OC (stereo not drawn),-1.8,?,8%,-2,·,-6
CC(C)(C)CC(C)(C)NCC(O)COc1ccc2c(c1)CCC2 (stereo not drawn),-2.0,-25%,27%,-42,-9,-5
COc1cc(C)nc(NC(=O)NC(=O)c2ccc(C(F)(F)F)cc2)n1,-6.8,?,3%,-6,5,1
CCCn1ncc(CN2CCC(Oc3ccc(C(=O)N4CCCC4)cc3)CC2)c1C,-4.0,17%,7%,-12,3,2
Oc1ccc(C[C@H]2CNC(=S)N2CC2CCCN2C[C@H](Cc2ccccc2)N2C[C@H](Cc3ccc(O)cc3)N(CCc3ccccc3)C2=S)cc1 (stereo partly drawn),2.8,·,1%,-8,-23,-10
COCCNC(=S)N1CCC(c2nc(-c3ccc(N(C)C)cc3)no2)CC1,-7.4,?,-17%,-1,-12,-14
O=C(c1nn(Cc2ccccc2)c(=O)c2ccccc12)N1CCN(C/C=C/c2ccccc2)CC1,-2.0,-3%,-25%,-36,-16,-16
CN1CCN(C(=O)C(=O)c2cn(CC(=O)N3CCCCCC3)c3ccccc23)CC1,-3.0,?,·,-9,0,8
COc1ccc(C(=O)NCCNC(C)=O)cc1S(=O)(=O)NCc1ccc(Cl)cc1,-1.9,-10%,2%,-6,9,-2
Cc1c(C)c2c(OCC(=O)O)cc3c(c2oc1=O)CCC(C)(C)O3,-3.4,4%,-20%,-9,·,-11

# Nine successive compounds out of the list so far, for reference:
SMILES,D2 ag,gsp ag,gsp antag,D2 PAM,CtBP-E1A inh,Six1-Eya2 blk
COc1cc(NC(=O)CN(C)S(=O)(=O)c2ccc3c(c2)CC(C)N3C(C)=O)cc(OC)c1OC (stereo not drawn),9.8,1%,-2%,-6,0,-1
CCc1cccc(Nc2cnn(C34C[C@@H]5C[C@@H](CC(CC(=O)O)(C5)C3)C4)c(=O)c2Cl)c1,1.8,15%,-6%,0,-4,-13
COc1ccc(NC(=O)C2CCCN2S(=O)(=O)c2cccc3cccnc23)cc1OC (stereo not drawn),-1.8,?,8%,-2,·,-6
CC(C)(C)CC(C)(C)NCC(O)COc1ccc2c(c1)CCC2 (stereo not drawn),-2.0,-25%,27%,-42,-9,-5
COc1cc(C)nc(NC(=O)NC(=O)c2ccc(C(F)(F)F)cc2)n1,-6.8,?,3%,-6,5,1
CCCn1ncc(CN2CCC(Oc3ccc(C(=O)N4CCCC4)cc3)CC2)c1C,-4.0,17%,7%,-12,3,2
Oc1ccc(C[C@H]2CNC(=S)N2CC2CCCN2C[C@H](Cc2ccccc2)N2C[C@H](Cc3ccc(O)cc3)N(CCc3ccccc3)C2=S)cc1 (stereo partly drawn),2.8,·,1%,-8,-23,-10
COCCNC(=S)N1CCC(c2nc(-c3ccc(N(C)C)cc3)no2)CC1,-7.4,?,-17%,-1,-12,-14
O=C(c1nn(Cc2ccccc2)c(=O)c2ccccc12)N1CCN(C/C=C/c2ccccc2)CC1,-2.0,-3%,-25%,-36,-16,-16

# Returning to the listing, starting two compounds before the break.
SMILES,D2 ag,gsp ag,gsp antag,D2 PAM,CtBP-E1A inh,Six1-Eya2 blk
COc1ccc(C(=O)NCCNC(C)=O)cc1S(=O)(=O)NCc1ccc(Cl)cc1,-1.9,-10%,2%,-6,9,-2
Cc1c(C)c2c(OCC(=O)O)cc3c(c2oc1=O)CCC(C)(C)O3,-3.4,4%,-20%,-9,·,-11
COc1ccc(C=Nc2cccnc2N)cc1,12,-18%,-14%,1,-15,-8
O=C1C(Oc2ccccc2)C(c2ccc3c(c2)OCO3)N1CCc1ccc(F)cc1 (stereo not drawn),-0.5,-60%,-25%,-12,22,10
CC(=O)Nc1ccc(C(=O)COC(=O)CN2C(=O)NC3(CCCCC3C)C2=O)cc1 (stereo not drawn),-1.6,?,1%,0,-7,-3
O=C(Nc1sc2c(c1C(=O)NCc1ccco1)CCCC2)c1ccc2c(c1)OCO2,-0.6,-5%,-16%,-5,9,-1
COc1cccc(/C=N/NC(N)=S)c1OS(=O)(=O)c1ccccc1,2.9,-1%,5%,5,-10,0
Cc1ccc(CNC(=O)c2nnn(CC(=O)Nc3cc(C)cc(C)c3)c2N)cc1,-2.4,1%,2%,-6,1,2
Cc1cnc(C(=O)OC(C)C(=O)NC2CCCc3ccccc32)cn1 (stereo not drawn),-3.8,4%[15.4 µM],7%,-3,-1,9
CC1CCN(C(=O)CSc2nnc(N)s2)CC1,0.8,-24%,16%,9,4,2
C=CCC[C@H](Cc1ccc(F)cc1)C(=O)OC[C@@H](Cc1c[nH]c2ccccc12)NC(=O)[C@@H](CC=C)CC(=O)N[C@H](CO)Cc1ccccc1,0.5,-3%,-4%,-3,·,-6
CCc1ccc([C@@H]2CC=C(C(=O)O)[C@H](c3ccccc3)N2S(=O)(=O)c2ccc(C)cc2)cc1,-2.5,16%,-9%,3,-2,-5
C#CCNC(=O)C1=C[C@@H](c2ccc(C(F)(F)F)cc2)C[C@@H](OCc2ccc(CO)cc2)O1,0.4,-27%,-2%,-6,29,18
CCC(=O)NCCc1nc2cc(NC(=O)c3ccc(F)cc3)ccc2n1C,-4.4,11%,2%,-11,·,4
COc1cc2c(cc1OC)C(=O)N1[C@H]3c4cc(C)ccc4OC[C@@H]3[C@H](c3ccccc3)[C@]1(C)C(=O)N2,4.1,·,-4%,3,-8,-10
[O-][n+]1c2ccccc2cc2ccccc21,7.2,?,-28%,21,2,-2
c1ccn(-c2ncnc3sc4c(c23)CCCC4)c1,-2.6,13%,4%,-8,0,-4
CC(=O)NC(Cc1c[nH]c2ccccc12)C(=O)NCCc1ccccn1 (stereo not drawn),-1.2,-4%[15.4 µM],4%,-3,-1,15
CC(=O)CC[N+](C)(C)C,0.7,-21%,12%,-11,-3,8
COC(=O)c1ccc(/C=C/C(=O)c2ccc(OC)c(OC)c2)cc1,-2.1,-5%,-8%,-33,-2,-1
CCCC(=O)Nc1ccc(C(=O)NNC(=O)c2ccccc2Br)cc1,1.1,-2%,-3%,-5,0,1
O=C(NCCCn1ccnc1)C(=O)c1c[nH]c2ccccc12,-3.4,0%[15.4 µM],5%,-29,-8,-12
CS(=O)(=O)c1ccc2nc(NC(=O)c3ccc(=O)[nH]c3)sc2c1,0.1,2%[15.4 µM],11%,-4,0,-14
CC(=O)C1=C(C)NC(=S)NC1c1cccc([N+](=O)[O-])c1 (stereo not drawn),-4.4,11%[15.4 µM],17%,-2,-12,3
COc1ccc(C(=O)NC(C(=O)OCC(=O)Nc2sccc2C(N)=O)C(C)C)cc1 (stereo not drawn),-3.1,-49%[inhibitor],-25%,-2,-19,-12
Cc1cc(NC(=O)c2cc(-c3ccc(C)c(C)c3)nc3ccccc23)no1,-4.7,1%,-5%,-12,-2,-11
COc1cc(NC(=O)CCC(=O)c2cccs2)cc(OC)c1,-5.9,-6%[15.4 µM],3%,-13,2,-10

# The listing continues.
SMILES,D2 ag,gsp ag,gsp antag,D2 PAM,CtBP-E1A inh,Six1-Eya2 blk
Cc1ccc(-n2c(SCC(=O)NC3CCS(=O)(=O)C3)nc3ccccc3c2=O)cc1 (stereo not drawn),-1.1,-4%[15.4 µM],3%,-7,·,-2
CC1CCCN(S(=O)(=O)c2ccc(NC(=O)c3cccc(-n4cnnn4)c3)cc2)C1 (stereo not drawn),1.4,-55%,-11%,6,-1,-2
COCCCNC(=O)c1ccc2c(=O)n(CC3CCCO3)c(=S)[nH]c2c1 (stereo not drawn),0.0,16%,5%,-6,-13,-8
CCOc1cc(-c2noc(CCC(=O)NCCc3ccccc3)n2)ccc1OC,6.7,18%[15.4 µM],-20%,-8,-2,4
NC(=O)NN=C1C2CCCC1C(c1ccccc1)NC2c1ccccc1 (stereo not drawn),-2.5,-3%[15.4 µM],-20%,-2,20,0
COc1cc(C(=O)Nc2cc(S(=O)(=O)N3CCOCC3)ccc2N2CCOCC2)ccc1OC(F)F,-0.6,-26%,-2%,10,·,-3
O=C(c1cncc(Br)c1)N1CCN(S(=O)(=O)c2ccccc2)CC1,5.5,-7%,10%,-3,7,9

# Assay outcomes from PubChem BioAssay.
